Bioassay records: PubChem, National Center for Advancing Translational Sciences (NCATS)
D2 potentiator: positive allosteric modulators of human D2 dopamine receptor | P14416 | 360,000 tested, 0.23% active | potentiation, % (test concentration not listed) | DiscoveRx D2 beta-arrestin cells, luminescence, 90 min; 100% = 57 uM dopamine signal; active = potentiation of 50% or more; inconclusive = 30% to 50%; inactive = 30% or less;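 further: compound concentration not given in the record; tested on top of an EC20 dose of dopamine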
Target sequence (P14416 whole entry, looked up): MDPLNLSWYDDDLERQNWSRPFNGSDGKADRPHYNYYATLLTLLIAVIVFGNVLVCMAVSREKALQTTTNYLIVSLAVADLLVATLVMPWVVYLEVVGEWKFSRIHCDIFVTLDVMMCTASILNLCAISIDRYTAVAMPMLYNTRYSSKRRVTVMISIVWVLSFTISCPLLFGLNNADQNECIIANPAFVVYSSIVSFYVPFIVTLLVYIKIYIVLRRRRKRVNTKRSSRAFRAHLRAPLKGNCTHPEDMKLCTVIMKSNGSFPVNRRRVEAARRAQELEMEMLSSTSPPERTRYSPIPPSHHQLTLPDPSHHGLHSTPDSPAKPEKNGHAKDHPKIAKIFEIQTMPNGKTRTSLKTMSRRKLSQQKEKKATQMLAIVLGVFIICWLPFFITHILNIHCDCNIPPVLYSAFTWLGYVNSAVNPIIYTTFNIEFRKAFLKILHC
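D2 cells co-treated with compound plus 50 nM dopamine (EC20) for 90 min at 37 deg C to detect potentiation. Beta-arrestin recruitment was read as enzyme-fragment luminescence after 1 h at ambient temperature. Full response was set by 57 uM dopamine.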
Six1-Eya2 inh: inhibitors of human Six1/Eya2 interaction | Q15475+O00167 | AlphaScreen GST-Six1/His-Eya2 binding, biochemical; active compounds read low; control for the full effect not named in the record | 360,000 tested, 0.56% active | AID 651725 | activity change, % (test concentration not listed); in the data active = activity change below about -65%; inconclusive = about -30% to -65%; inactive = above about -30%; further: on the % scale 0 is the no-effect control and ±100 the full control effect
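Homogeneous AlphaScreen proximity assay pairing GST-Six1 with His-tagged Eya2 (added as 5X mix: 250 nM and 500 nM) in 50 mM Tris pH 8.0, 300 mM NaCl, 1 mM TCEP. Glutathione donor and nickel acceptor beads; 1 h, 37 °C, dark.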
D2 ag: human D2 receptor agonism in beta-arrestin assay; DiscoveRx PathHunter D2 beta-arrestin, luminescence, 90 min; 100% = 57 uM dopamine signal; activation, % (concentration not given with the values); 360,000 tested, 0.084% active; AID 624465; in the data active = activation above about 40%; inconclusive = about 15% to 40%; inactive = below about 15%; further: compound concentration not given in the record; the text of the record calls up to 30% inactive
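Agonist mode: compounds alone added to overnight-plated D2 PathHunter cells for 90 min at 37 C, with 57 uM final dopamine (EC100) defining full response. Beta-arrestin recruitment detected by chemiluminescent reagent, read after 1 h at ambient temperature.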
TRPML1 blocker: blocks the human TRPML1 channel; Q9GZU1; TRPML1-inducible cells, Ca2+ dye fluorescence, FDSS; active compounds read low; inhibition of EC80 agonist-evoked calcium signal; activity change, negative = inhibition, % (no concentration beside the values); 390,000 tested, 0.02% active; AID 624415; in the data active means activity change below about -50%; inconclusive means about -30% to -50%; inactive means above about -30%;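 further: stimulus is agonist 54-4 at its EC80 concentration; on the % scale 0 is the no-effect control and ±100 the full control effect; compound concentration not given in the record; the text of the record puts the active cut at -80%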
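Calcium fluorescence in TRPML1-DL cells induced overnight with Tet: a 110 s read after compound pin addition, then a 110 s antagonist read after challenge with 54-4 at 4 uM final (EC80).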
TRPML1 agonist: activates the human TRPML1 channel. Q9GZU1. TRPML1-expressing cells, Ca2+ dye fluorescence, FDSS; host cell line not named in the record; reference of the full effect not given here. activation, % (no concentration beside the values). 410,000 tested, 0.12% active. AID 624414; in the data active = activation above about 50%; inconclusive = about 30% to 50%; inactive = below about 30%; further: 0% is about no effect; the text of the record puts the active cut at 80%
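Tetracycline-induced TRPML1-DL cells are seeded and incubated overnight before loading with a no-wash Ca2+ dye and quencher. Agonist activity is taken from the 110 s fluorescence read following compound pin-transfer on an FDSS, before EC80 54-4 challenge.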
PINK1 expr mod: modulators of PINK1 expression; PINK1 immunofluorescence, high-content cytometry, 24 h; Potency, µM (titrated, usually from 76.6 µM), inactives show top-dose activation (PINK1 increase), actives largely listed as activators; 410,000 tested, 0.2% active; AID 624263; active = well fitted activation curve with a large enough effect; inconclusive = small, poorly fitted or top-dose-only effect; inactive = flat fitted curve, though single readings scatter; cell line not stated here;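 further: potency means the concentration at half of the fitted maximal effect; % of control where 0% means no effect; nearly all actives have a fitted effect of over 65% in size; a mitochondrial uncoupler was the plate control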
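Stable cell line, 250 cells/well, 12 h attachment; compounds pinned at 5 concentrations, 24 h; CCCP control. Fixed with nuclear dye, primary antibodies 12 h at 10 degrees C, secondary plus cell stain; laser-scanning cytometer read.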
Active calls of the source: *; ? = inconclusive; . = no result given; [ ] = remark or other dose.

nr	structure	PINK1 expr mod	TRPML1 blocker	Six1-Eya2 inh	TRPML1 agonist	D2 ag	D2 potentiator
1	CC(C)c1nnc(SCC(=O)Nc2ccc3c(c2)OCCO3)n1C	2.5%	4	-19	-0.9	-5.4	-11
2	N#Cc1ccc(S(=O)(=O)N2CCC(Oc3cccc(C(F)(F)F)c3)CC2)cc1	0.8%	26	.	3.6	.	.
3	CNC(=S)NNC(=O)c1sccc1OCc1cccc(C(F)(F)F)c1	17%	5	1	0.3	-1.7	-12
4	COc1ccc([N+](=O)[O-])cc1NC(=O)CSc1nc(C)c(C)c(C)n1	2.6%	-4	-3	0.0	-1.8	-14
5	C#CCSc1ncc(-c2ccccc2)cn1	0.2%	1	-12	1.0	-0.8	-3
6	CCN1CCN(c2ncnc3c2cnn3-c2cc(Cl)ccc2C)CC1	1.0%	1	.	0.2	.	.
7	COc1cc(OC)cc(C(=O)N[C@H](C(=O)OCC(=O)N2CCc3ccccc32)C(C)C)c1	0.1%	10	-7	1.6	-1.6	-10
8	Cc1cc(C)cc(NC(=O)CSc2nnc(CN3CCOCC3)n2C)c1	0.5%	-13	-1	-0.4	-3.9	-2
9	Cc1ccc(S(=O)(=O)Nc2ccc3c(c2)n(C)c(=O)n3C)cc1	2.2%	-13	10	-0.5	3.7	-6
10	CCOc1ccc(NC(=O)Nc2ccccc2SC)cc1	2.2%	-7	-1	-0.7	-5.9	-14
11	CCCC(=O)N1CCN(c2ccc(NC(=O)c3ccc(OCC)c([N+](=O)[O-])c3)cc2)CC1	0.1%	-12	-1	1.6	1.1	-4
12	CSc1ccc(C2NC(=O)c3c(sc4c3CCN(C)C4)N2)cc1 (configuration not stated)	1.6%	-5	2	0.0	-2.8	-11
13	Cn1cccc1Cc1nnc(SCC(=O)Nc2ccc3c(c2)OCCO3)n1-c1ccc(F)cc1	-0.2%	-5	-21	0.9	-4.0	7
14	CC(C)CS(=O)(=O)c1oc(-c2ccc(F)cc2)nc1S(=O)(=O)c1ccccc1	-0.3%	66	.	2.7	.	.
15	O=c1cc(CSc2nnc(COc3ccccc3)n2-c2ccccc2)c2ccccc2[nH]1	-0.3%	-9	-11	-0.2	-0.5	-12
16	CC(C)OP(=O)(OC(C)C)/C(C=O)=N\Nc1ccc([N+](=O)[O-])cc1	22%	35	-1	-1.1	-1.8	-4
17	O=C(NCCc1ccccn1)c1nc(Cn2cc([N+](=O)[O-])cn2)no1	-0.1%	4	-3	0.3	-0.2	-9
18	CC(=O)c1sc2c(c1C)c(=O)n(-c1ccc(Cl)cc1)c(=O)n2Cc1cc(=O)n2cc(Cl)ccc2n1	6.8%	2	.	-0.6	.	.
19	CC12CCC(=O)N1C(C(=O)Nc1cccc3ccccc13)CS2 (configuration not stated)	2.0%	4	14	0.8	-6.3	-25
20	Cc1nc2c(c(=O)n1CCC(C)C)c1nc3ccccc3nc1n2CC1CCCO1 (configuration not stated)	0.7%	-8	20	0.9	-0.8	0
21	CCc1ccc(C(=O)c2ccccc2C(=O)O)s1	-0.1%	3	1	-0.2	-6.5	-4
22	COc1ccc(OC)c(N=Cc2c(O)c3ccccc3oc2=O)c1	0.7%	11	4	8.4	-2.2	-16
23	CCCSc1nc(N)c(C#N)c(-c2ccc(C)cc2)c1C#N	15%	-3	0	0.1	0.5	0
24	COc1ccc(N(CC(=O)Nc2cccnc2)S(=O)(=O)c2ccccc2)cc1Cl	0.4%	-8	-4	-0.6	-0.7	-8
25	COc1cccc(OCC(=O)NN=C2c3ccccc3-c3ccccc32)c1	?	-16	-9	-0.1	-0.5	-5
26	Fc1ccccc1CNc1ncnc2sccc12	-1.4%	45	8	0.5	-0.9	1
27	CN(C)S(=O)(=O)c1cccc(NS(=O)(=O)c2ccc(Cl)s2)c1	1.2%	10	-4	0.4	-1.1	-4
28	CCCCCCSc1ccc(-c2nc3ccc(C)cn3c2NCCCC)cc1OC	?	.	7	-0.5	.	.
29	CN(CCOc1ccc(Cl)cc1)C(=O)C1CCN(C(=O)c2ccc(F)cc2)CC1	2.4%	-5	2	0.0	-0.4	0
30	CC(C)C1C(=O)N(Cc2cn(CCC3OCCCO3)nn2)CCS(=O)(=O)N1Cc1ccc(-c2cccc(CO)c2)cc1 (configuration not stated)	1.8%	3	3	0.7	-3.7	-8
31	O=C(NNS(=O)(=O)c1ccccc1)c1cnn(-c2ccc(Cl)cc2)c1C(F)(F)F	0.3%	-25	-11	0.1	3.5	5
32	Oc1[nH]c2ccccc2c1N=Nc1ccc(C(F)(F)F)cn1	9.1%	12	-6	-1.2	-1.2	-12
33	CCc1nnc(NC(=O)c2oc3ccc(Br)cc3c2C)s1	2.3%	-1	1	-1.1	-0.5	-3
34	COCCCNC(=O)/C(C#N)=C/c1c(N2CCN(c3ccccc3)CC2)nc2c(C)cccn2c1=O	0.8%	5	-25	1.3	-3.9	-7
35	Cn1c(=O)c2c(nc3n2CCCN3CCc2ccccc2)n(C)c1=O	-1.3%	?	1	-0.3	-3.8	-7
36	COc1ccc(CN2CCC(C(=O)N(C)CCc3ccc(OC)c(OC)c3)CC2)c(OC)c1	1.6%	-10	6	-0.3	2.0	-19
37	COc1ccc(C)cc1NC(=S)N1CC(C)OC(C)C1 (configuration not stated)	0.1%	1	5	-0.6	-7.9	5
38	C#CCNC(=O)C1=C[C@H](C2CC2)C[C@H](OCCCCO)O1	-0.5%	22	6	0.0	0.3	-8
39	CCCNC(=O)C1(C)CCN(C(=O)c2oc3ccccc3c2C)C1 (configuration not stated)	0.1%	.	0	-0.4	-4.0	-8
40	CC1CCC(NC(=O)C2CCC(CNS(=O)(=O)c3ccccc3)CC2)CC1 (configuration not stated)	1.5%	18	0	-0.8	-2.1	-2
41	CC1CCN(S(=O)(=O)c2ccc(Cl)cc2Br)CC1	0.9%	78	23	3.7	-1.5	-4
42	CC1=C(C(=O)OC(C)C)[C@@H](c2ccc(C)o2)NC(=O)N1	1.8%	-18	-5	0.5	-2.5	-5
43	Cc1cccc(N2CCN(Cc3nc(-c4ccccc4Cl)oc3C)CC2)n1	8.4%	-7	-16	-0.8	3.3	-7
44	Fc1ccccc1-c1ccc(/C=N/Nc2nc3ccccc3[nH]2)o1	22%	-17	1	-1.1	10	-1
45	CCN(CC)S(=O)(=O)c1ccc(NC(=O)COC(=O)c2ccc(Br)o2)cc1	-1.6%	-5	9	-0.8	1.4	0
46	O=C1SCCC1NC(=O)C(c1ccccc1)c1ccccc1 (configuration not stated)	-1.1%	3	-1	0.5	-1.5	0
47	CCn1c(C)nc2cc(C(=O)NNC(=S)Nc3ccccc3)ccc21	-1.6%	45	34	0.8	-3.7	-8
48	CCc1ccc(C(=O)c2cn(CC(=O)NCCc3ccccc3)c3nc(C)ccc3c2=O)cc1	1.1%	-5	.	2.6	.	.
49	COc1ccc(S(=O)(=O)n2nc(OC(=O)c3cccs3)cc2N)cc1	-1.1%	11	-11	-0.1	-1.6	-10
50	CCOc1ccc(C(=O)C[n+]2ccc(C(=O)NCc3ccccc3)cc2)cc1	2.4%	-17	-3	-0.6	-3.9	-4

Additional compounds follow:
nr	structure	PINK1 expr mod	TRPML1 blocker	Six1-Eya2 inh	TRPML1 agonist	D2 ag	D2 potentiator
51	Cn1/c(=N\NC(=O)c2ccccc2Cl)sc2ccccc21	0.9%	-9	3	0.7	-5.4	5
52	O=C1c2[nH]nc(-c3ccccc3O)c2C(c2cccc(O)c2)N1Cc1ccco1 (configuration not stated)	3.4%	-5	-12	1.5	0.1	-20
53	CC(=O)OCC(=O)C1=CCC2C3CCC4=CC(=O)C=CC4(C)C3(F)C(OC(C)=O)CC12C (configuration not stated)	3.2%	2	0	-0.5	-2.4	-26
54	CCO/N=C(\C)c1c(O)cc(C(C)C)n(-c2ccccc2)c1=O	1.7%	-5	-8	-0.4	0.5	8
55	O=C(NC1CCN(Cc2ccccc2)CC1)C1CCCN(c2nnc(-n3cccc3)s2)C1 (configuration not stated)	1.5%	-7	-3	-0.1	-2.3	-14
56	Cc1ccc(-n2c(C)c3c(C)nnc(C)c3c2C)cc1C	-0.4%	23	-5	4.6	-0.7	0
57	CC12CCC3c4ccc(OCC(=O)O)cc4CCC3C1CCC2=O (configuration not stated)	0.4%	-1	3	-0.3	-2.5	-11
58	Cc1cccc(C)c1NC(=S)NC(C)CCc1ccccc1 (configuration not stated)	0.3%	14	1	0.6	-4.0	-8
59	CC1(C(=O)NS(=O)(=O)c2ccc(Cl)cc2)CCN1C(=O)Cc1cc(F)ccc1F (configuration not stated)	0.6%	.	1	-0.8	-0.1	-12
60	Cc1ccc(-c2noc(COc3ccc(Br)c(C)c3)n2)cc1	-4.2%	28	.	4.6	.	.
61	COc1ccc2[nH]c(C(=O)NCCCn3ccnc3)cc2c1	2.4%	13	-23	-0.9	0.2	-7
62	COc1ccc(NCc2ccc([N+](=O)[O-])s2)c(OC)c1	0.2%	10	-9	1.3	0.8	3
63	CCOC(=O)c1c(S(=O)(=O)Nc2ccc(F)cc2Cl)c(C)n(C)c1C	1.4%	-1	-11	-0.8	4.1	3
64	Cc1cc2ncn(S(=O)(=O)c3ccc(S(=O)(=O)N4CCOCC4)cc3)c2cc1C	-6.0%[38.3 µM]	3	6	0.2	-0.9	0
65	Cc1cccc2cc(C(c3nnnn3C(C)(C)C)N3CCN(C(=O)c4ccco4)CC3)c(=O)[nH]c12 (configuration not stated)	1.9%[38.3 µM]	11	2	-0.4	-0.8	-4
66	O=C(NCCCCNC(=O)c1cccs1)c1cccs1	-0.9%	2	27	-0.3	-4.4	-5

Not a hit list; overall some 1% were active at least once.
